NOMO-1 viab – NOMO-1 AML cell viability reduction, primary screen, STK33 inhibitor project, CellTiter-Glo luminescence; inhibition, % (no concentration beside the values); NOMO-1 AML viability, 72 h; 37,000 tested, 7.5% active; AID 2330, 2010;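 active means most replicates above 80%; inconclusive means exactly half above 80%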;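 further: wells of about 30 µL received 25 nL stock; 0% = median of vehicle wells and 100% = reference inhibitor level; the first replicate is given; inactives centre near 10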
* = called active by the depositor; ? = inconclusive. This is a subset. The share of hits here may be higher or lower than overall.

Start of the data: the first eleven records as a preview:
SMILES	NOMO-1 viab
C[C@H]1CN([C@@H](C)CO)C(=O)Cc2cc(NC(=O)CCC(F)(F)F)ccc2O[C@H]1CN(C)C(=O)Nc1ccc(F)cc1	-8
C[C@@H]1CCCCO[C@H](CN(C)C(=O)Nc2ccc3c(c2)OCO3)[C@@H](C)CN([C@H](C)CO)C(=O)c2cc(NS(C)(=O)=O)ccc2O1	9
Cc1ccc(Nc2nc(N)nc(CN3CCN(C(c4ccccc4)c4ccccc4)CC3)n2)cc1	89*
Cc1noc(C)c1NC(=O)N(C)C[C@H]1Oc2c(NS(=O)(=O)c3ccccc3)cccc2C(=O)N([C@H](C)CO)C[C@@H]1C	-5
Cn1c(SCCCN2C(=O)c3cccc4cccc(c34)C2=O)nnc1-c1ccncc1	13
O=C(COc1ccccc1[N+](=O)[O-])Nc1ccc2oc(-c3ccc(Br)cc3)nc2c1	29
CC(C)NC(=O)Nc1cccc2c1O[C@@H](CN(C)S(=O)(=O)c1cn(C)cn1)[C@@H](C)CN([C@H](C)CO)C2=O	-16
O=C(CS(=O)c1ccccc1[N+](=O)[O-])Oc1ccc(Cl)cc1Cl (stereo unspecified)	69
COc1cc(C)c(C(=O)Oc2cc(C)c(C(=O)Oc3cc(C)c(C(=O)NC(C)C(=O)O)c(O)c3)c(O[C@@H]3O[C@H](CO)[C@@H](O)[C@H](O)[C@H]3OC(C)=O)c2)c(OC)c1 (stereo partly specified)	10
C[C@@H]1CN([C@H](C)CO)C(=O)Cc2cc(NS(=O)(=O)c3cccs3)ccc2O[C@@H]1CN(C)Cc1ccncc1	15
O=C(CSc1nc(O)cc(=O)[nH]1)Nc1ccccc1	8

All compounds of this part (from the top)
SMILES	NOMO-1 viab
C[C@H]1CN([C@@H](C)CO)C(=O)Cc2cc(NC(=O)CCC(F)(F)F)ccc2O[C@H]1CN(C)C(=O)Nc1ccc(F)cc1	-8
C[C@@H]1CCCCO[C@H](CN(C)C(=O)Nc2ccc3c(c2)OCO3)[C@@H](C)CN([C@H](C)CO)C(=O)c2cc(NS(C)(=O)=O)ccc2O1	9
Cc1ccc(Nc2nc(N)nc(CN3CCN(C(c4ccccc4)c4ccccc4)CC3)n2)cc1	89*
Cc1noc(C)c1NC(=O)N(C)C[C@H]1Oc2c(NS(=O)(=O)c3ccccc3)cccc2C(=O)N([C@H](C)CO)C[C@@H]1C	-5
Cn1c(SCCCN2C(=O)c3cccc4cccc(c34)C2=O)nnc1-c1ccncc1	13
O=C(COc1ccccc1[N+](=O)[O-])Nc1ccc2oc(-c3ccc(Br)cc3)nc2c1	29
CC(C)NC(=O)Nc1cccc2c1O[C@@H](CN(C)S(=O)(=O)c1cn(C)cn1)[C@@H](C)CN([C@H](C)CO)C2=O	-16
O=C(CS(=O)c1ccccc1[N+](=O)[O-])Oc1ccc(Cl)cc1Cl (stereo unspecified)	69
COc1cc(C)c(C(=O)Oc2cc(C)c(C(=O)Oc3cc(C)c(C(=O)NC(C)C(=O)O)c(O)c3)c(O[C@@H]3O[C@H](CO)[C@@H](O)[C@H](O)[C@H]3OC(C)=O)c2)c(OC)c1 (stereo partly specified)	10
C[C@@H]1CN([C@H](C)CO)C(=O)Cc2cc(NS(=O)(=O)c3cccs3)ccc2O[C@@H]1CN(C)Cc1ccncc1	15
O=C(CSc1nc(O)cc(=O)[nH]1)Nc1ccccc1	8
COc1ccc(-c2coc3cc(O[C@@H]4O[C@H](CO)[C@@H](O)[C@H](O)[C@H]4O)cc(O)c3c2=O)cc1	11
C[C@@H]1O[C@@H](O[C@H]2[C@H](OC(=O)[C@]34CCC(C)(C)C[C@H]3C3=CCC5[C@@]6(C)C[C@H](O)[C@H](O[C@@H]7O[C@H](C(=O)O)[C@@H](O)[C@H](O)[C@H]7O)[C@@](C)(CO)C6[C@H](O)C[C@@]5(C)[C@]3(C)C[C@H]4O)O[C@@H](CO)[C@@H]2O)[C@H](O)[C@H](O)[C@H]1O[C@@H]1OC[C@@H](O)[C@H](O[C@H]2OC[C@](O)(CO)[C@H]2O)[C@H]1O (stereo partly specified)	18
C[C@H](CO)N1C[C@H](C)[C@@H](CN(C)C(=O)Nc2ccccc2)Oc2c(NC(=O)Nc3cccc4ccccc34)cccc2C1=O	58
COc1ccc(N(CC(=O)Nc2ccc(I)cc2)S(C)(=O)=O)c(OC)c1	24
Cc1noc(C)c1NC(=O)N(C)C[C@@H]1Oc2c(NC(=O)NC3CCCCC3)cccc2C(=O)N([C@H](C)CO)C[C@@H]1C	19
O=C(Nc1ccccc1)C(F)(F)F	14
C[C@@H]1CN([C@H](C)CO)C(=O)Cc2cc(NC(=O)Cn3cnnn3)ccc2O[C@H]1CN(C)Cc1ccccc1	-19
Cc1ccc(-c2nc3cc(NC(=O)COc4ccccc4[N+](=O)[O-])ccc3o2)cc1	23
O=C(O)CC(C(=O)Nc1ccc(Cl)cc1)N1CCCCC1 (stereo unspecified)	-8
CC(C)(C)c1ccc(-c2nnc(SCC(=O)Nc3ccccc3)n2-c2ccccc2)cc1	113*
CS(=O)(=O)N1CCN(c2ccccc2NC(=O)c2ccco2)CC1	39
CC(O)CCCc1cc(O)cc(O[C@@H]2O[C@H](CO)[C@@H](O)[C@H](O)[C@H]2O)c1 (stereo partly specified)	-7
O=C1Nc2ccccc2C(O)(C(=O)N2CCCCC2)N1c1ccccc1 (stereo unspecified)	31
C[C@H]1CN([C@@H](C)CO)C(=O)c2cc(NS(C)(=O)=O)ccc2O[C@@H]1CN(C)S(=O)(=O)c1cn(C)cn1	25
C[C@H]1CN([C@@H](C)CO)C(=O)Cc2cc(NC(=O)Cc3cn(C)c4ccccc34)ccc2O[C@@H]1CN(C)C(=O)Nc1ccccc1	24
CNC[C@@H]1Oc2c(NC(=O)c3cnccn3)cccc2C(=O)N([C@H](C)CO)C[C@H]1C	-8
C[C@H]1CN([C@@H](C)CO)C(=O)c2cccc(NC(=O)Nc3cccc4ccccc34)c2O[C@H]1CN(C)Cc1ccc(C(=O)O)cc1	-4
C[C@H](CO)N1C[C@H](C)[C@@H](CN(C)S(=O)(=O)c2ccc(F)cc2)Oc2c(NC(=O)c3nc4ccccc4s3)cccc2C1=O	35
Cn1c(=O)c2c(ncn2CC(=O)NCc2ccccc2Cl)n(C)c1=O	8
COC(=O)Nc1nc2ccc(SC(C)C)cc2[nH]1	118*
Cc1ccc(S(=O)(=O)N(C)C[C@@H]2Oc3ccc(NS(=O)(=O)c4c(C)noc4C)cc3CC(=O)N([C@@H](C)CO)C[C@@H]2C)cc1	9
Cc1cccc(OCC(=O)Nc2cccc(-c3nc4ccccc4s3)c2)c1	-8
Cc1ccc(NC(=O)CC2NCCNC2=O)cc1C (stereo unspecified)	0
C[C@H](CO)N1C[C@H](C)[C@@H](CN(C)Cc2ccncc2)Oc2c(NS(C)(=O)=O)cccc2C1=O	9
C[C@@H]1CN([C@@H](C)CO)C(=O)c2cc(NS(=O)(=O)c3ccc(Cl)cc3)ccc2O[C@@H]1CN(C)CC1CCCCC1	14
C[C@@H]1CCCCO[C@H](CN(C)C(=O)Nc2ccc3c(c2)OCO3)[C@@H](C)CN([C@H](C)CO)C(=O)c2cc(NS(=O)(=O)c3ccc(F)cc3)ccc2O1	4
C[C@H]1CN([C@@H](C)CO)C(=O)c2cccc(NC(=O)C3CCCCC3)c2O[C@@H]1CN(C)Cc1ccccc1	67
C[C@@H]1CN([C@@H](C)CO)C(=O)c2cc(NS(=O)(=O)c3cn(C)cn3)ccc2O[C@H]1CN(C)S(C)(=O)=O	-10
C[C@@H]1CCCCO[C@@H](CN(C)Cc2ccncc2)[C@@H](C)CN([C@H](C)CO)C(=O)c2cc(NC(=O)Cc3ccccc3)ccc2O1	15
CCCN(C)C[C@H]1OCCCC[C@@H](C)Oc2ccc(NC(=O)C3CCCCC3)cc2C(=O)N([C@H](C)CO)C[C@@H]1C	4
CC(C)C(C(=O)O)N1C(=O)/C(=C/c2ccc(Br)cc2)SC1=S (stereo unspecified)	1
C=C[C@@]1(C)CCC2=C(C1)C(=O)CC1[C@](C)(C(=O)O)CCC[C@]21C (stereo partly specified)	17
Cc1ccc(NC(=O)CSC2CC(=O)N(c3ccc(F)cc3)C2=O)cc1Cl (stereo unspecified)	20
Cn1c(=O)[nH]c(=O)c2c1ncn2CC(=O)NCc1ccco1	7
Cc1cc(C(=O)Nc2cccc3c2O[C@H](CN(C)Cc2ccc(C(=O)O)cc2)[C@H](C)CN([C@H](C)CO)C3=O)n(C)n1	-15
C[C@@H]1CN([C@@H](C)CO)C(=O)c2cccc(NS(=O)(=O)c3cccs3)c2O[C@@H]1CN(C)C	5
C[C@H](CO)N1C[C@H](C)[C@@H](CN(C)Cc2ccc(Cl)c(Cl)c2)Oc2ccc(NC(=O)CCCN(C)C)cc2C1=O	16
C[C@H]1CN([C@@H](C)CO)C(=O)c2cccc(NS(=O)(=O)c3ccc(Cl)cc3)c2O[C@H]1CN(C)CC1CCCCC1	34
CCOC(=O)CC1C(=O)NCCN1C(=O)c1sc2ccccc2c1Cl (stereo unspecified)	31

Carrying on.
SMILES	NOMO-1 viab
CCCS(=O)(=O)/C(C#N)=C/c1sccc1Oc1ccccc1	8
C[C@H]1CN([C@@H](C)CO)C(=O)c2cc(NS(=O)(=O)c3ccccc3)ccc2O[C@H]1CN(C)S(=O)(=O)c1cn(C)cn1	-12
COc1ccc(NC(=O)N(C)C[C@H]2Oc3ccc(N(C)C)cc3C(=O)N([C@H](C)CO)C[C@H]2C)cc1	15
CCOC(=O)c1c(CSc2cccc3cccnc23)nc2c3ccccc3ccn12	68
COc1ccc(S(=O)(=O)N(C)CC(=O)N2CCOCC2)cc1OC	-20
C[C@@H]1CN([C@H](C)CO)C(=O)Cc2cc(NS(=O)(=O)c3ccccc3)ccc2O[C@H]1CN(C)Cc1ccc(Cl)c(Cl)c1	111*
COc1ccc(Cl)cc1NC(=O)CSc1n[nH]c(-c2ccccc2)n1	9
C[C@@H]1CN([C@@H](C)CO)C(=O)c2cc(NS(=O)(=O)c3ccc(F)cc3)ccc2O[C@@H]1CN(C)Cc1ccccc1	18
Cc1ccc([N+](=O)[O-])cc1NC(=O)CN(c1ccc(I)cc1)S(C)(=O)=O	28
C[C@@H]1CN([C@@H](C)CO)C(=O)c2cccc(NC(=O)Nc3ccc4c(c3)OCO4)c2O[C@H]1CN(C)Cc1ccc(C(=O)Nc2ccccc2N)cc1	126*
Cc1noc(C)c1S(=O)(=O)N(C)C[C@H]1OCCCC[C@@H](C)Oc2ccc(NS(=O)(=O)c3ccccc3)cc2C(=O)N([C@H](C)CO)C[C@@H]1C	27
COc1ccc(S(=O)(=O)Nc2ccc3c(c2)C(=O)N([C@H](C)CO)C[C@@H](C)[C@H](CN(C)CC2CCCCC2)O3)cc1	3
CC(=O)Nc1nc(C23CC4CC(CC(C4)C2)C3)cs1	4
C[C@H]1CN([C@@H](C)CO)C(=O)c2cc(NS(=O)(=O)c3ccccc3)ccc2O[C@@H]1CN(C)Cc1ccc(C(=O)Nc2ccccc2N)cc1	23
CCN(CC)C(=S)CSc1nc(-c2ccccc2)cc(-c2ccco2)c1C#N	88*
Cc1ccc(S(=O)(=O)N(C)C[C@@H]2OCCCC[C@@H](C)Oc3ccc(NC(=O)c4ccccc4)cc3C(=O)N([C@H](C)CO)C[C@@H]2C)cc1	?
Cc1ccc(S(=O)(=O)N(C)C[C@H]2Oc3ccc(NC(=O)Nc4cccc5ccccc45)cc3C(=O)N([C@@H](C)CO)C[C@H]2C)cc1	17
Cc1ccc(S(=O)(=O)Nc2cccc3c2O[C@@H](CN(C)Cc2ccccc2)[C@@H](C)CN([C@H](C)CO)C3=O)cc1	12
C[C@@H]1CN([C@H](C)CO)C(=O)c2cccc(NC(=O)c3ccncc3)c2O[C@H]1CN(C)S(=O)(=O)c1cccs1	-2
C[C@@H]1CN([C@H](C)CO)C(=O)c2cc(NC(=O)Cn3cnnn3)ccc2O[C@H]1CN(C)S(=O)(=O)c1ccc(Cl)cc1	7
CN(c1cccc(NC(=O)Cc2ccccc2[N+](=O)[O-])c1)S(C)(=O)=O	18
CC1CCC/C=C2\C(=O)C=CC3OC(/C=C/C=C/C=C/C(=O)O)=C(C(=O)O1)C23 (stereo unspecified)	122*
C[C@H](CO)N1C[C@H](C)[C@H](CN(C)Cc2ccncc2)Oc2c(NS(=O)(=O)c3ccc(Cl)cc3)cccc2C1=O	38
Cc1ccc(NS(=O)(=O)c2cc(C(=O)Nc3ccccc3C(=O)N3CCCC3)ccc2C)c(C)c1	18
O=C(CCN1C(=O)c2ccccc2C1=O)Oc1ccc2c3c(c(=O)oc2c1)CCC3	4
COc1ccc(S(=O)(=O)Nc2ccc3c(c2)CC(=O)N([C@@H](C)CO)C[C@H](C)[C@@H](CN(C)Cc2ccc(Cl)c(Cl)c2)O3)cc1	88*
COC(=O)Nc1ccc(S(=O)(=O)N(C)C)cc1	-4
Cc1ccc(-c2nc3cc(Cl)ccc3o2)cc1NC(=O)COc1ccccc1[N+](=O)[O-]	31
Cc1ccc(S(=O)(=O)Nc2ccc3c(c2)CC(=O)N([C@@H](C)CO)C[C@@H](C)[C@@H](CN(C)S(=O)(=O)c2c(C)noc2C)O3)cc1	-12
C[C@H]1CN([C@@H](C)CO)C(=O)c2cc(NS(=O)(=O)c3ccccc3)ccc2O[C@@H]1CN(C)S(=O)(=O)c1ccc(Cl)cc1	5
COc1cc([N+](=O)[O-])ccc1NC(=O)CN(C)S(=O)(=O)c1ccc(Br)cc1	22
O=C(CCC1COc2ccccc2O1)Nc1cccnc1 (stereo unspecified)	4
C/C(=C\CC[C@@H](C)[C@H]1CC(OC2OCC(O)C(O)C2O)[C@@]2(C)C3CC[C@H]4C(C)(C)[C@@H](O[C@@H]5OC(CO)C(O)C(O)C5OC5OC(CO)C(O)C(O)C5O)CC[C@@]45C[C@@]35CC(O)[C@]12C)C(=O)OC1OC(CO)C(O)C(O)C1O (stereo partly specified)	12
O=C(Cc1ccccc1)c1ccccc1C(=O)NCc1cccs1	26
